Sfp PPTase inh = blocks B. subtilis Sfp PPTase activity; Q9F4F7; Biochemical Sfp PPTase activity, qHTS; Potency, µM, without a hit: max response, negative = inhibition, most hits filed as inhibitors; AID 1490; 310,000 tested, 3.5% active; active = well fitted inhibition curve with a large enough effect; inconclusive = small, poorly fitted or top-dose-only effect, or another doubt; inactive = no such curve, though single readings can be large or run the other way;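 note: the enzyme is Sfp with the accession as filed and its product quenches rhodamine fluorescence; potency is the fitted concentration of half-maximal effect; 0% = enzyme reaction without inhibitor and -100% = no enzyme wells; top concentration of the series not given in the record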
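Step 1, compound plus 15 nM Sfp-PPTase, 15 min, room temperature. Step 2, add rhodamine-CoA (5 uM) and BHQ-2-YbbR (12.5 uM). Step 3, read 525/598 nm fluorescence at 0 and 30 min.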
D2 PAM = potentiates the human D2 dopamine receptor allosterically; potentiation, % (no concentration beside the values); P14416; DiscoveRx D2 beta-arrestin cells, luminescence, 90 min; 100% = 57 uM dopamine signal; 360,000 tested, 0.23% active; AID 624464; active = potentiation of 50% or more; inconclusive = 30% to 50%; inactive = 30% or less;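 note: compound concentration not given in the record; tested on top of an EC20 dose of dopamine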
Target sequence (P14416 whole entry, looked up): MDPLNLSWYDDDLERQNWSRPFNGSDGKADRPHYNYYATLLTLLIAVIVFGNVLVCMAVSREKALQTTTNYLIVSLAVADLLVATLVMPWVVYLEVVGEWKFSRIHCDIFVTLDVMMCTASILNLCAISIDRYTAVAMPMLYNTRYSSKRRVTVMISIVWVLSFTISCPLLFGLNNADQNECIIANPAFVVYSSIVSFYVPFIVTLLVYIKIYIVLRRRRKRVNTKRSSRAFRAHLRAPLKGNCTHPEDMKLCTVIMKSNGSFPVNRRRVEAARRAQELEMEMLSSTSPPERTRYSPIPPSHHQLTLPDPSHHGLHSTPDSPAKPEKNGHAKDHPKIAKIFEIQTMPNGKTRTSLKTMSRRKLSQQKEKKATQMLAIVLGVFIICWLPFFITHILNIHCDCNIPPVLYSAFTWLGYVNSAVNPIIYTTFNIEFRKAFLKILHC
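PathHunter D2 cells, attached overnight at 37 deg C, received compound in DMSO plus dopamine at EC20 (50 nM final) for 90 min at 37 deg C. Beta-arrestin recruitment was read as luminescence after 1 h with detection reagent at ambient temperature.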
TRPV1 potentiator = enhances activation of the human vanilloid receptor TRPV1; Q8NER1; TRPV1-expressing cells, Fluo-8 calcium influx, capsaicin EC20 potentiation; host cell line not named in the record; control for the full effect not named in the record; potentiation, % at 8.33 µM; 320,000 tested, 0.02% active; active means potentiation above 80%; inconclusive means 30% to 80%; inactive means below 30%; note: 0% is about no effect
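Fluo-8 calcium influx in TRPV1-expressing cells, kinetic read (ex 480/em 520 nm). Compound added and read 3 min for agonist activity, followed by capsaicin at EC20 final and 2 min further read for enhancement.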
Menin MLL FP FL = inhibitors of human menin-MLL interaction, wild-type MLL peptide | Fluorescence polarization, fluorescein-MLL peptide displacement from menin | FP activity change, % at 61.4 µM | 290,000 tested, under 10 active | AID 1766; inconclusive = falling polarisation curve, or a change in total fluorescence; inactive = total fluorescence flat and polarisation flat or rising; no compound was filed as active; the % refers to the polarisation; negative = inhibition;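 note: % of control where 0% means no effect; inhibitors lower the polarisation; unlabelled MLL peptide was the positive control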
gsp antagonist = gsp mutant antagonism; 340,000 tested, 0.4% active; gsp-mutant cells, cAMP HTRF, 30 min; control for the full effect not named in the record; Potency, µM (titrated, usually from 76.9 µM), without a hit: at the top dose activity change, negative = inhibition, hits mostly inhibitors; active = falling curve of any shape with a large fitted effect; inconclusive = falling curve, mostly with a smaller effect; inactive = flat or rising curve; cell line not stated here;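 note: intracellular cAMP measured with PDE inhibitor Ro 20-1724 present during compound exposure; potency is the fitted concentration of half-maximal effect; % is set by controls: 0 for no effect and ±100 for the full control effect; nearly all actives have a fitted effect of over 65% in size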
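Cells in G418 medium, seeded 16-24 h, 37C; buffer exchange to DPBS + 1 mM CaCl2, 0.5 mM MgCl2, 0.05% BSA; cpds in DMSO + […] (300 uM stock), 30 min 37C; HTRF cAMP detection.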
ClpP mod = qHTS Assay for Activators of ClpP; ATP-dependent Clp protease proteolytic subunit (Bacillus subtilis (strain 168)), P80244; purified B. subtilis ClpP, FRET peptide cleavage, 20 min; Potency, µM (highest dose often 57.5 µM), inactives show at the highest dose activity change, negative = active; 340,000 tested, 1.9% active; active = well fitted falling curve with a large enough effect; inconclusive = small, poorly fitted or top-dose-only effect; inactive = no such curve, though single readings can be large or run the other way; note: potency is the fitted concentration of half-maximal effect; the source files actives as falling curves though it sought activators and does not explain the sign; nearly all actives have a fitted effect of over 65% in size; many hits overshoot -100%
Target sequence (P80244 whole entry, looked up): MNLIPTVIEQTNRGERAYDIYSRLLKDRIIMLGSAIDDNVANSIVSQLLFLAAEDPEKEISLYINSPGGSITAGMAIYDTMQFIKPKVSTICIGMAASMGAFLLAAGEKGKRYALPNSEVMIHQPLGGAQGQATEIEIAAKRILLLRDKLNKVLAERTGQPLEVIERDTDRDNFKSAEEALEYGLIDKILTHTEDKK
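Buffer: 100 mM Tris/HCl pH8, 100 mM KCl, 0.05% low protease BSA, 2.5% glycerol, 0.01% Tween-20. ClpP 10 microg/mL final; 20 min RT; delta FRET normalized to ADEP and DMSO controls.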
gsp ag = agonists of gsp mutant (McCune-Albright syndrome). gsp mutant cells, cAMP HTRF, 30 min; control for the full effect not named in the record. Potency, µM (highest dose often 76.9 µM), without a hit: at the top dose activation (cAMP increase), most hits filed as activators. 340,000 tested, 0.13% active. AID 624287; active = well fitted activation curve with a large enough effect; inconclusive = small, poorly fitted or top-dose-only effect, or another doubt; inactive = no such curve, though single readings can be large or run the other way; cell line not stated here;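 note: phosphodiesterase inhibitor Ro 20-1724 added with compounds to block cAMP breakdown; potency is the fitted concentration of half-maximal effect; nearly all actives have a fitted effect of over 60% in size; about a fifth of the inactives were tested at one dose only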
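Cells stably selected in G418 were plated at 2000/well, grown 16-24 hr, then given compounds in DMSO with the PDE inhibitor […] (300 uM solution added) for 30 min at 37C; cAMP was read by HTRF.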
Starred values were filed as active, the others as inactive; ? = inconclusive; . = not tested or not shown; & = joins results of further samples; [ ] = dose if it differs, or a comment.

SMILES	Sfp PPTase inh	D2 PAM	TRPV1 potentiator	Menin MLL FP FL	gsp antagonist	ClpP mod	gsp ag
CC1SC(c2cccc(Cl)c2)NC1=O (stereo unspecified)	?	-7	1	3.4	4%	-0.6%	12%
Cc1nnc(SCC(=O)c2ccc([N+](=O)[O-])cc2)s1	50µM*	-1	25	-3.6	0%	.	0%
Cc1cc2cccc(C)c2nc1SCC(=O)NCC1CCCO1 (stereo unspecified)	-4%	-4	0	0.3	12%	.	1%[15.4 µM]
O=C(OCCCN=C1NS(=O)(=O)c2ccccc21)c1ccccc1F	17%	-25	-3	1.1	-7%	1.4%	-21%
CCOC1OC(=O)C(Cl)=C1Nc1ccc(C)cc1 (stereo unspecified)	-8%	-7	-28	2.8	9%	.	2%[15.4 µM]
CCCc1nnc(NC(=O)c2ccc(N3C(=O)C4C5C=CC(C5)C4C3=O)cc2)s1 (stereo unspecified)	26%	16	5	-2.1	-15%	1.8%	-4%
Oc1cccc(NC(=S)Nc2ccccc2)c1	-4%	0	4	1.1	13%	1.0%	13%
CCN(CC)c1c([N+](=O)[O-])c(=O)n(CC)c2ccccc12	20%	-16	-6	-1.2	-14%	0.4%	5%
O=C(O)C1CN(c2ncccc2[N+](=O)[O-])C1	20%	-1	0	-4.5	9%	.	1%[15.4 µM]
COc1ccc(NS(=O)(=O)c2ccc(C(=O)NCC3(N4CCOCC4)CCCCC3)cc2)cc1	.	-20	.	.	-19%	1.1%	-8%[15.4 µM]
O=C(N/C(=C/c1ccc(Cl)cc1)C(=O)N1CCCCC1)c1ccco1	7%	-16	-20	6.0	-12%	1.8%	-18%[15.4 µM]
O=C(NNC(=O)C1CCN(c2ncccn2)CC1)c1ccc(Cl)cc1	8%	-8	-1	-3.2	6%	?	17%
COC(=O)C1(Cc2ccccc2)NC(c2ccccc2C)C2C(=O)N(c3ccc4c(c3)OCO4)C(=O)C21 (stereo unspecified)	2%	-5	4	4.2	2%	-0.5%	15%
CCc1ccc(NC(=O)N(CCCN2CCOCC2)Cc2cccs2)cc1	12%	-1	-12	0.4	1%	0.1%	-25%
Cc1c(C(=O)Nc2cccc(Cl)c2)cn2c(nc3ccccc32)c1C#N	2%	-10	4	8.6	7%	-21%	-31%
Cc1cccc2sc(NC(=O)CCNS(=O)(=O)c3cccc4nonc34)nc12	-1%	-3	7	4.2	?	-0.3%	-20%
COc1ccc(NC(=O)N2CCCC2C(=O)NCc2cccs2)cc1 (stereo unspecified)	4%	-6	0	-1.3	11%	-0.5%	-2%[15.4 µM]
CC(=O)c1ccccc1NC(=O)COC(=O)C1CCCN1S(=O)(=O)c1ccccc1F (stereo unspecified)	.	0	-7	.	-1%	-0.2%	-96%[inhibitor]
COc1cc2c(c(OC)c1OC)C(c1ccc(O)cc1)CC(=O)O2 (stereo unspecified)	-1%	.	.	3.4[94.6 µM]	-9%	1.7%	.
O=C(NCc1ccc2c(c1)OCO2)c1cccc([N+](=O)[O-])c1	10%	1	5	-0.1	0%	-1.0%	26%
COc1ccc(F)cc1CN1CCN(CC(=O)Nc2ccccc2C(=O)NC2CC2)CC1	.	-2	11	.	11%	-0.8%	-17%
COc1ccc(-c2[nH]ncc2-c2nc(C)cs2)c(O)c1	-4%	-4	-8	3.8	2%	.	2%[15.4 µM]
O=C(NC(=S)Nc1ccccc1Cl)C1CC1	6%	-4	-12	.	5%	-1.0%	7%
CCOC(=O)C1(CCCc2ccccc2)CCN(C(=O)c2ccoc2)CC1	?	0	-17	0.5	-8%	.	8%[15.4 µM]
Nc1cc(-c2ccccc2)nn1S(=O)(=O)c1ccc(F)cc1	11%	6	9	2.9	-12%	1.0%	?
CC(C)(C)N1CC23CCC(C[C@@H]2C1=O)O3 (stereo partly specified)	.	-1	17	.	9%	1.7%	0%
CCOC(=O)C1=C(c2ccccc2)NC(=O)NC1c1cc(Cl)c(O)c(OC)c1 (stereo unspecified)	-4%	2	23	21	0%	.	-12%
O=C(CNC(=O)c1ccc(Br)o1)NC1CCCCCC1	.	-6	-2	.	12%	.	12%[15.4 µM]
O=C(Nc1ccc(Cl)cc1C(=O)Nc1ccccn1)c1ccco1	18%	-4	6	1.9	-2%	-4.4%	5%
Cc1ccc(S(=O)(=O)N(CCC(=O)Nc2ccc(OC(F)(F)F)cc2)c2ccccc2)cc1	24%	2	11	-0.2	5%	1.2%	-6%
Cc1ccc(P(=O)(OCCN2CCOCC2)C(C)(C)C)o1 (stereo unspecified)	19%	-17	7	3.1	4%	-0.5%	-11%
COc1cc(C2C(C#N)=C(N)Oc3c2c(-c2ccccc2)nn3-c2ccccc2)cc(OC)c1OC (stereo unspecified)	19%	1	-4	3.7	-23%	1.3%	-30%[inhibitor]
CC(C)C(c1nnnn1CCc1ccccc1)N1CCSCC1 (stereo unspecified)	-4%	-8	0	3.1	-11%	-2.1%	-11%
CCOC(=O)c1[nH]c2ccccc2c1NC(=O)COC	-6%	1	0	-3.0	2%	4.1%	4%
Cc1ccccc1/C=C\c1nc2ccccc2c(=O)[nH]1	-29%	-7	3	0.3	7%	.	11%[15.4 µM]
O=C(CCc1nc(-c2ccccc2F)no1)NCCc1ccccc1Cl	11%	-13	-14	-1.1	-9%[15.4 µM]	0.2%	5%
Cc1ccccc1CCNC(=O)c1ccc(Cl)c(S(=O)(=O)N2CC(C)OC(C)C2)c1 (stereo unspecified)	.	4	-11	.	-18%	-2.8%	-2%
COc1ccc(C)cc1NC(=O)CN1CCN(S(=O)(=O)c2ccc(Br)cc2)CC1	0%	4	20	1.6	-23%	-1.1%&1.5%	-41%[inhibitor]
NC(=O)NCc1ccccc1Cl	13%	-4	-5	-0.9	2%	.	16%[15.4 µM]
CCn1c(SCC(=O)Nc2ccc3c(c2)OCCO3)nnc1-c1cccs1	15%	-4	7	-4.3	8%	-1.3%	-2%
CC(=O)NCCc1nc2cc(NC(=O)c3ccccc3C)ccc2n1C	0%	-2	?	3.4	6%	0.7%	-27%
N/C(=N\OC(=O)Cc1ccc([N+](=O)[O-])cc1)c1ccccn1	?	4	-8	11	-2%	-0.1%	28%
N#CCC(=O)Nc1ccc(C(=O)OCC(=O)NNC(=O)c2cccs2)cc1	.	-4	5	.	-1%	-2.1%	-20%
O=[N+]([O-])c1ccccc1S(=O)(=O)NCCc1ccncc1	9%	-1	15	-0.7	5%	.	16%[15.4 µM]
Cc1cc(N2CCN(c3ccccc3)CC2)nc2ccccc12	5%	-2	4	1.3	-13%	-28%	3%
COc1ccc(C(=O)/C=C/c2ccc(OC)c(COc3ccc(F)cc3)c2)cc1	5%	-26	1	0.0	-1%	-6.9%	6%
CC(C)OC(=O)Cc1nc2sc(-c3ccccc3)cc2c(=O)[nH]1	0%	-7	?	2.3	-9%	3.4%	?
Cc1ccc(CSc2nc3nc(C)cc(C)c3c(=O)[nH]2)cc1	-7%	9	9	-1.9	13%	.	0%
COc1ccc(C(=O)NCc2ccccc2C)cc1S(=O)(=O)NC1CCCC1	.	0	.	.	-6%	-2.5%	17%
COC(=O)C1=C(C)N(Cc2ccccc2)C(=NCCCCO)N[C@H]1c1ccccc1	6%&-12%	-12	6&-11	-2.9&-19	7%	-0.4%	.
O=C(NCc1ccccn1)c1cc2cc(Br)ccc2oc1=O	18%	5	-4	-0.9	3%	-0.8%	-4%
COc1cccc(-c2nn(-c3ccc(C)cc3)cc2C(=O)N(C)CC(=O)Nc2cccc(F)c2)c1	.	-20	11	.	-17%	-17%	9%
O=C(Nc1ccc(F)cc1)c1ccc2ncsc2c1	?	-3	-19	8.6	0%	-1.9%	9%
CCN(CC)c1nc(Oc2ccc(=O)[nH]n2)nc(N2CCOCC2)n1	-8%	-15	6	6.9	5%	-0.8%	-33%[inhibitor]
CCOc1ccc(NC(C)=O)cc1N	.	-6	-3	.	-16%	-1.5%	.
COc1ccc(CN2C(=O)C(CC(=O)NCc3cccs3)CC(C(=O)N3CCOCC3)=C2C)cc1 (stereo unspecified)	.	-3	.	.	.	-1.1%	?
O=C(CSc1ccc(-c2ccccn2)nn1)NC1CCCC1	4%	2	9	1.4	9%	.	14%[15.4 µM]
COc1ccc(NC(=O)N(C)[C@H]2C[C@H]3c4[nH]c5ccccc5c4CCN3C(=O)[C@H]2[C@H](C)O)cc1	.	-5	.	.	.	4.1%	-85%[inhibitor]
COc1ccc(C(=O)Nc2ccc(/C(C)=N/NC(=O)c3ccccc3O)cc2)cc1OC	1%	-24	-11	.	6%	-1.2%	-37%[inhibitor]
Cc1ccc(S(=O)(=O)N2CCN(CC(O)c3ccccc3)CC2)cc1C (stereo unspecified)	15%	-10	1	-5.3	-15%	1.7%	-4%
(more compounds)
SMILES	Sfp PPTase inh	D2 PAM	TRPV1 potentiator	Menin MLL FP FL	gsp antagonist	ClpP mod	gsp ag
COc1ccc(-c2csc(NC(=O)CSC(C)C(=O)Nc3cc(C)on3)n2)cc1OC (stereo unspecified)	.	-2	12	.	-11%	-1.1%	-6%
CCN(CC)CCCNc1oc(-c2ccc(OC)c(OC)c2)nc1C#N	-12%	-9	2	0.5	5%	-1.9%	0%
CC(=O)N1CCN(C(=O)c2cc(S(=O)(=O)N(C)c3ccc(F)cc3)ccc2Cl)CC1	.	-1	-1	.	3%	0.8%	-48%[inhibitor]
Cc1ccc(-n2ncc3c2CC(C)(C)CC3NC(=O)CCn2cncn2)cc1 (stereo unspecified)	21%	-4	-17	.	-1%	-1.3%	20%
Cc1c(-c2cccs2)[n+](=O)c2c(n1[O-])CCC2	5%	-10	9	1.5	10%	-1.3%	10%
Cc1ccccc1/C=N/NC(=O)Cn1nnc(N)n1	-9%	-4	-9	-0.9	5%	-2.5%	-5%[15.4 µM]

Reformatted: results already given.
compound,Sfp PPTase inh,D2 PAM,TRPV1 potentiator,Menin MLL FP FL,gsp antagonist,ClpP mod,gsp ag
CCN(CC)CCCNc1oc(-c2ccc(OC)c(OC)c2)nc1C#N,-12%,-9,2,0.5,5%,-1.9%,0%
Cc1ccccc1/C=N/NC(=O)Cn1nnc(N)n1,-9%,-4,-9,-0.9,5%,-2.5%,-5%[15.4 µM]
